Screening results from PubChem BioAssay.
VACV Venus inh: vaccinia inhibition (Venus reporter); Vaccinia virus Venus reporter expression, fluorescence; Potency, µM (doses to about 36.5 µM), for inactives: top-dose activity change, negative = inhibition, most hits filed as inhibitors; 330,000 compounds, 0.46% hits; active means well fitted inhibition curve with a large enough effect; inconclusive means small, poorly fitted or top-dose-only effect; inactive means no such curve, though single readings can be large or run the other way; tested in A549 cells; also: nearly all actives have a fitted effect of over 30% in size; inactives centre near -10
Vaccinia mCherry: inhibitors of vaccinia virus infection (mCherry reporter signal) | Potency, µM (titrated, usually from 36.5 µM), inactives show top-dose activity change, negative = inhibition, hits mostly inhibitors | 310,000 compounds, 0.63% hits | AID 720579 | Vaccinia virus mCherry reporter infection, fluorescence; about a quarter of the inactives have no number; active = well fitted inhibition curve with a large enough effect; inconclusive = small, poorly fitted or top-dose-only effect; inactive = no such curve, though single readings can be large or run the other way; tested in A549 cells; also: nearly all actives have a fitted effect of over 35% in size; inactives centre near -10
Active calls of the source: *; & = joins results of further samples; [ ] = dose if it differs, or a comment. % is scaled to controls: 0 for no effect and ±100 for the full control effect; potency is read from the fitted curve at half-maximal effect.

`OCC[C@@H]1C[C@@H](O)[C@H](O)[C@]2(Cc3ccccc3CCO2)O1` gave VACV Venus inh -3% and Vaccinia mCherry inactive.
For CCOc1ccccc1N1CCN(Cc2ccc(OC)c(OC)c2OC)CC1 the results were VACV Venus inh -12% and Vaccinia mCherry -14%.
`COc1ccc(OC)c2c1nc1n2CCS1` gave VACV Venus inh -8% and Vaccinia mCherry inactive.
Cn1c(SCc2ccccc2)nnc1-c1ccc2nonc2c1 was read as VACV Venus inh 0% and Vaccinia mCherry 5%.
`CC(C)(C)n1nnnc1C(c1cccs1)N(Cc1ccccc1)Cc1cccnc1` (centres undefined) gave VACV Venus inh -19% and Vaccinia mCherry 0%[1.46 µM].
For O=C(CCSc1ccccc1)Nc1nnc(-c2ccccc2)o1 the results were VACV Venus inh -16% and Vaccinia mCherry inactive.
Screening Cc1cc(-c2ccc(Cl)cc2)n2nc(N)nc2n1 returned VACV Venus inh -15%.
COc1ccccc1CN(C)C(=O)c1cc2ccccc2o1 was read as VACV Venus inh 11% and Vaccinia mCherry 2%.
COc1ccc(C(=O)N2CC=C(c3ccccc3)CC2)cc1S(=O)(=O)N1CCOCC1 was read as VACV Venus inh -12% and Vaccinia mCherry -22%.
`O=C(CSc1ncnc2nc[nH]c12)c1ccccc1` gave VACV Venus inh -10% and Vaccinia mCherry inactive.
`CCOC(=O)c1c(C)[nH]c(C)c1S(=O)(=O)NCC(=O)Nc1cccc(C#N)c1` gave VACV Venus inh -19% and Vaccinia mCherry -8%.
Screening Cc1cccc(CN2C(=O)c3ccccc3S(=O)(=O)c3ccc(C(=O)OCC4CCCO4)cc32)c1 (centres undefined) returned VACV Venus inh -4% and Vaccinia mCherry -5%.
CCC1=C[C@@H]2CN(C1)Cc1c([nH]c3ccccc13)[C@@](C(=O)OC)(c1cc3c(cc1OC)N(C)[C@H]1[C@@](O)(C(=O)OC)[C@H](OC(C)=O)[C@]4(CC)C=CCN5CC[C@]31[C@@H]54)C2 was read as VACV Venus inh inconclusive and Vaccinia mCherry inconclusive.
For COc1ccc(-c2sc3ccc(N4CCOCC4)cc3c2C#CC2(O)CCCCC2)cc1 the results were VACV Venus inh inconclusive and Vaccinia mCherry inconclusive.
Screening CCC(CC)C(=O)Nc1cc(-c2cccc(C)c2)nn1-c1ccccc1 returned VACV Venus inh -3% and Vaccinia mCherry -6%.
`CCCN1CCN(S(=O)(=O)c2ccc(OC)c(Br)c2)CC1` gave VACV Venus inh inconclusive.
`CC(=O)c1cccc(NC(=O)CCCSc2ccccc2)c1` gave VACV Venus inh -2% and Vaccinia mCherry -8%.
CN(C)C(=O)c1nnsc1Sc1ccc(Cl)cc1 was read as VACV Venus inh -4% and Vaccinia mCherry -9%.
`COc1ccc(N=Nc2c(C)[nH][nH]c2=O)cc1` gave VACV Venus inh -2% and Vaccinia mCherry -19%.
`COc1cc(/C=C/C(=O)OCC(=O)N2CCN(C(=O)c3ccco3)CC2)ccc1O` gave VACV Venus inh -18% and Vaccinia mCherry -20%.
Screening Cc1cc(C)c(S(=O)(=O)Oc2ccccc2[N+](=O)[O-])c(C)c1 returned VACV Venus inh -27% and Vaccinia mCherry inconclusive.
For CCCCn1cnc2c(SCc3ccc(Br)cc3)nc(N)nc21 the results were VACV Venus inh -26% and Vaccinia mCherry -6%.
C=CCNC(=S)N/N=C/c1ccc(C(C)(C)C)cc1 was read as VACV Venus inh -12% and Vaccinia mCherry -20%.
For O=C(Nc1nc2ccccc2[nH]1)c1ccc(Cl)c([N+](=O)[O-])c1 the results were VACV Venus inh -13% and Vaccinia mCherry inactive.
CC(C)NC(=S)N/N=C/c1cccs1 was read as VACV Venus inh -15% and Vaccinia mCherry -25%.
For COC(=O)c1ccc(CSc2nc3c(c(=O)n2-c2ccc(C)cc2)SCC3)o1 the results were VACV Venus inh -11% and Vaccinia mCherry inactive.
Screening Cn1c(-c2ccccn2)[n+](C)c2ccccc21 returned VACV Venus inh -10% and Vaccinia mCherry inactive.
`COc1ccc(C(=O)Nc2nc3c(s2)Cc2cc(OC)ccc2-3)cc1` gave VACV Venus inh -10%&-14% and Vaccinia mCherry -14%.
For C=C1C2CC[C@@]3(C)C(c4ccoc4)OC(=O)C[C@@]13OC1CC(=O)C(C)(C)C(C(OC(C)=O)C(=O)OC)[C@@]12C (some centres undefined) the results were VACV Venus inh -8% and Vaccinia mCherry -17%.
For COc1cc(Cl)c(C)cc1NC(=O)c1cc(S(=O)(=O)N(C)C)ccc1N1CCCC1 the results were VACV Venus inh inconclusive and Vaccinia mCherry inconclusive.
`CCOc1ccccc1CNC(=O)c1ccc2c(c1)N(CC)CCS2` gave VACV Venus inh -9%&-13% and Vaccinia mCherry 10%&-22%.
For Cc1cc(C)cc(OCC(=O)N/N=C/c2ccncc2)c1 the results were VACV Venus inh -17% and Vaccinia mCherry -20%.
`O=C(Nc1ccccc1)c1sccc1Oc1ccc([N+](=O)[O-])cc1F` gave VACV Venus inh -7% and Vaccinia mCherry -24%.
For CC1CN(Cc2cn(C)nc2-c2ccc(Oc3ccccc3)cc2)CCN1C (centres undefined) the results were VACV Venus inh -23% and Vaccinia mCherry -7%.
`CC[C@H](C)[C@H](NC(=O)[C@H](CCCN=C(N)N)NC(=O)[C@H](CCCN=C(N)N)NC(=O)[C@H](CC(C)C)NC(=O)[C@H](Cc1ccccc1)NC(=O)CNC(=O)CN)C(=O)N[C@@H](CCCN=C(N)N)C(=O)N1CCC[C@H]1C(=O)N[C@@H](CCCCN)C(=O)N[C@@H](CC(C)C)C(=O)N[C@@H](CCCCN)C(=O)O` gave VACV Venus inh -11%[3.33 µM] and Vaccinia mCherry -23%[3.33 µM].
`CCCCN(C)CCCNC(=O)Cn1nc(CC)n2c(cc3sc(C)cc32)c1=O` gave VACV Venus inh -7% and Vaccinia mCherry -8%.
CN(C)c1ccc(N=C/C=C2\N(C)c3ccccc3C2(C)C)cc1 was read as VACV Venus inh 60%[activator] and Vaccinia mCherry -12%.
`Nc1cc(Cl)cc2c1-c1ccc(Cl)cc1C2` gave VACV Venus inh 3% and Vaccinia mCherry inconclusive.
COc1cccc(C(=O)NCCNC(=O)c2ccc(C)nc2)c1 was read as VACV Venus inh 18% and Vaccinia mCherry -3%.
COc1ccc(C(=O)CNC2=NCCC2)cc1 was read as VACV Venus inh -9% and Vaccinia mCherry -9%.
For CCOC(=O)C1C(=O)C=C(N2CCOCC2)CC1c1cccc(OC)c1 (centres undefined) the results were VACV Venus inh -9% and Vaccinia mCherry -12%.
For CC[C@H]1CN(C)C[C@@]2(C(=O)OC)Cc3c([nH]c4ccccc34)C(=O)C[C@@H]12 the results were VACV Venus inh 28% and Vaccinia mCherry 2%.
Cc1cccc(N2C(S)=C(C#N)C(=O)NC2c2ccco2)c1 (centres undefined) was read as VACV Venus inh -20% and Vaccinia mCherry -15%.
Screening COCCCN1C(=O)C(CC(=O)NCc2cccc3ccccc23)CC(C(=O)N(C)C)=C1C (centres undefined) returned VACV Venus inh -19% and Vaccinia mCherry inactive.
`COc1ccccc1NC(=O)c1ccc(NC(=O)C2CC2)cc1` gave VACV Venus inh -12% and Vaccinia mCherry -16%.
For Fc1cccc(Cl)c1Cn1nnc2c(NCc3ccccn3)ncnc21 the results were VACV Venus inh -17% and Vaccinia mCherry -20%.
Cc1ccccc1-c1nnc(CN2CCN(c3cccc(C)c3C)CC2)o1 was read as VACV Venus inh -3% and Vaccinia mCherry 1%.
CC1CCC(N(CCCN)Cc2ccco2)CC1C (centres undefined) was read as VACV Venus inh -5% and Vaccinia mCherry inconclusive.
C(=C\c1ccccc1)/CSc1nnc(-c2cnccn2)n1Cc1ccco1 was read as VACV Venus inh -22%.
`CCCC(=O)Nc1sc(C(=O)OC)c(C)c1C(N)=O` gave VACV Venus inh -7% and Vaccinia mCherry -16%.
Screening CC1(C)CC2(C)OC(=N)C1(C#N)C2(C#N)C#N (centres undefined) returned VACV Venus inh -17% and Vaccinia mCherry inactive.
Screening O=C1NCN(c2ccccc2)C12CCN(C(c1ccnc3ccccc13)c1nnnn1Cc1ccccc1)CC2 (centres undefined) returned VACV Venus inh -16% and Vaccinia mCherry -7%.
COC(=O)c1ccc(CNC(=O)Cn2cc(C)c(=O)[nH]c2=O)cc1 was read as VACV Venus inh 0% and Vaccinia mCherry -2%.
For O=C(Nc1ccc(-c2ccccc2)cc1)c1ccc2c(c1)S(=O)(=O)c1ccccc1C2=O the results were VACV Venus inh -21% and Vaccinia mCherry -18%.
`CN(C)S(=O)(=O)N(CC(=O)NCCSCc1ccccc1Cl)c1ccccc1` gave VACV Venus inh -13% and Vaccinia mCherry inactive.
COc1nc(N(C)C)nc(N(OC)S(=O)(=O)c2ccccc2Cl)n1 was read as VACV Venus inh -23% and Vaccinia mCherry -11%.
CC(Cc1cccnc1)NC(=O)c1ccccc1OC1CCN(S(C)(=O)=O)CC1 (centres undefined) was read as VACV Venus inh -1% and Vaccinia mCherry inactive.
`COCCN(Cc1cccs1)S(=O)(=O)c1ccc(-c2ccc(=O)[nH]n2)s1` gave VACV Venus inh -11%[7.34 µM] and Vaccinia mCherry -12%[7.34 µM].
For CC(C)[C@H](NC(=O)N1CC(=O)Nc2ccccc21)C(=O)N[C@H](Cc1ccccc1)C(=O)O the results were VACV Venus inh 0% and Vaccinia mCherry -7%.
For O=C(CN1C(=O)c2ccccc2S1(=O)=O)NCc1cccnc1 the results were VACV Venus inh -14% and Vaccinia mCherry inactive.
`CCOC(=O)c1cc2c(=O)n3ccccc3nc2n(CC2CCCO2)c1=NC(C)=O` (centres undefined) gave VACV Venus inh -11% and Vaccinia mCherry -6%.
`CN(Cc1cnccn1)Cc1cn(Cc2ccccc2)nc1-c1ccc2c(c1)OCO2` gave VACV Venus inh -10% and Vaccinia mCherry -6%.
`CC(OC(=O)c1ccc(S(=O)(=O)NCc2ccco2)cc1)C(=O)Nc1ccccc1` (centres undefined) gave VACV Venus inh -20% and Vaccinia mCherry inactive.
Screening OC1CCN(Cc2nc(Cc3ccccc3Cl)no2)CC1 returned VACV Venus inh -11% and Vaccinia mCherry -5%.
For O=C(CCC1CCN(C(=O)c2ccccc2Cl)CC1)NCc1ccc(F)cc1 the results were VACV Venus inh -15% and Vaccinia mCherry -18%.
`CNc1ncc(Cc2ccccc2)s1` gave VACV Venus inh 3% and Vaccinia mCherry -17%.
`CC(NC(=O)C12CC3CC(CC(O)(C3)C1)C2)c1ccc(Cl)cc1Cl` (centres undefined) gave VACV Venus inh 1% and Vaccinia mCherry -13%.
`Cc1nc(NC(=O)c2ccccc2)sc1-c1cc(C(=O)O)nn1Cc1ccccc1` gave VACV Venus inh -13% and Vaccinia mCherry -4%.
For COc1ccc(C)cc1NC(=O)Cn1c(=O)oc2cc(S(=O)(=O)N3CCCCC3)ccc21 the results were VACV Venus inh -10% and Vaccinia mCherry -9%.
For CC1=NOC(=O)/C1=C\c1ccc(-c2ccc(Cl)cc2Cl)o1 the results were VACV Venus inh 6% and Vaccinia mCherry -9%.
Screening COc1ccc(NS(=O)(=O)c2ccc3c(c2)CCCN3C(=O)C2CCC2)cc1OC returned VACV Venus inh -13% and Vaccinia mCherry inconclusive.
`Cc1ccc2c(c1)[C@H]1[C@H](CO2)[C@H](c2ccccc2)[C@]2(C)C(=O)Nc3ccc(F)cc3C(=O)N12` gave VACV Venus inh inconclusive and Vaccinia mCherry -15%.
Screening CCc1ccc(NC(=O)CNC(=O)Cn2c(C)cc3ccccc3c2=O)cc1 returned VACV Venus inh -4% and Vaccinia mCherry -6%.
For CCN(CC)CCCn1c(C)cc2c(c1=O)C(c1cccc(Cl)c1)C(C#N)=C(N)O2 (centres undefined) the results were VACV Venus inh -9%.
`CCC(C)(C)c1ccc(OCC(=O)Nc2ccncc2)cc1` gave VACV Venus inh -14% and Vaccinia mCherry -15%.
Screening CN(C)/C=C/C(=O)Oc1ccc(Cl)cc1Cl returned VACV Venus inh 0% and Vaccinia mCherry -1%.
Screening CC(=O)OCCn1c(C)[n+](CCOC(C)=O)c2cc(Cl)c(Cl)cc21 returned VACV Venus inh -8% and Vaccinia mCherry -28%.
Screening CCCN(CCC)C(=O)CC(c1ccc(F)cc1)c1ccco1 (centres undefined) returned VACV Venus inh -6% and Vaccinia mCherry -12%.
For COc1ccccc1CC(=O)NO the results were VACV Venus inh -7% and Vaccinia mCherry -2%.
Screening CCOC(=O)C1CCCN(C(=O)c2ccc([N+](=O)[O-])cc2)C1 (centres undefined) returned VACV Venus inh -4% and Vaccinia mCherry -15%.
For Cc1ccn2cc(CCNS(=O)(=O)c3ccc([N+](=O)[O-])cc3)nc2c1 the results were VACV Venus inh -6% and Vaccinia mCherry inactive.

Looked up by compound from the entries so far (six):
For COc1ccccc1CC(=O)NO the results were VACV Venus inh -7% and Vaccinia mCherry -2%.
Screening COc1ccc(NS(=O)(=O)c2ccc3c(c2)CCCN3C(=O)C2CCC2)cc1OC returned VACV Venus inh -13% and Vaccinia mCherry inconclusive.
Screening CC(=O)OCCn1c(C)[n+](CCOC(C)=O)c2cc(Cl)c(Cl)cc21 returned VACV Venus inh -8% and Vaccinia mCherry -28%.
Screening CCCN(CCC)C(=O)CC(c1ccc(F)cc1)c1ccco1 (centres undefined) returned VACV Venus inh -6% and Vaccinia mCherry -12%.
Screening CCOC(=O)C1CCCN(C(=O)c2ccc([N+](=O)[O-])cc2)C1 (centres undefined) returned VACV Venus inh -4% and Vaccinia mCherry -15%.
`CCC(C)(C)c1ccc(OCC(=O)Nc2ccncc2)cc1` gave VACV Venus inh -14% and Vaccinia mCherry -15%.
